MT1-MMP act inh: blockers of MT1-MMP proenzyme processing, primary screen, HT1080 RFP-PRO-GFP cells, GFP/RFP fluorescence; Matrix metalloproteinase-14 (Homo sapiens), P50281; GFP/RFP ratio fluorescence, overnight; percent of plate control window, DMSO zero; GFP/RFP ratio change, % at 20 µM; 360,000 tested, 0.061% active;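 active means GFP/RFP ratio change of at least 30% with cell ATP level not reduced by more than half and red fluorescence within 50% of control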; further: strong numbers were not always called active
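Assay system: RFP-PRO-GFP reporter HT1080 cells; read-out basis: GFP/RFP fluorescence ratio; benchmarks: DMSO wells and RFP-L50D-GFP cells; doses: 20 µM single dose, 1% DMSO; schedule: overnight cell settling, then overnight compound exposure, 37 °C, 5% CO2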
eIF4H FP inh: human eIF4H binding inhibitors, primary screen, translation initiation inhibitor project, biochemical, uHTS, fluorescence polarization | 290,000 tested, 0.94% active | Eukaryotic translation initiation factor 4H (Homo sapiens), Q15056 | eIF4H fluorescence polarization binding assay | AID 2012, 2009 | inhibition, % at 35 µM;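 active means 50% or more with normal probe brightness, or confirmed in later tests; inconclusive means above 50% with abnormal brightness, or retests that disagree; inactive means below 50% or failed in later tests; about a fifth of its hits are not listed in these tables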;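 further: calls also rest on retests at 20 µM and on dose response follow-up; 0% = protein and probe with vehicle and 100% = probe without protein; strong numbers were not always called active; many hits fall short of the cut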
HIV Env fusion: inhibitors of HIV-1 Env-driven cell-cell fusion, primary screen, HeLa-JRFL effector, CEM21 target cells, luciferase; inhibition, % at 12.3 µM; 360,000 tested, 1.1% active; AID 651610, 2012;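 active means mean replicate inhibition score of at least 50 and every replicate individually at or above 50; inconclusive means only one of the two criteria met; inactive means mean below 50 and not all replicates reaching 50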;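 further: 0% = plate neutral controls and 100% = maraviroc near 300 nM; one replicate is shown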
UUG fidelity: modulators of yeast start codon fidelity, primary screen, whole organism, S. cerevisiae, single point, plate reader. AID 602363, 2012. S. cerevisiae UUG-firefly luciferase reporter, luminescence/redox ratio. 350,000 tested, 0.13% active. activity score, % at 18.7 µM;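 active means replicate mean at a twofold rise or more, about +100% in these data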;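 further: firefly luciferase made from a UUG start codon reports start codon fidelity; reporter light over untreated wells divided by growth signal over untreated wells; some hits fall short of that in this replicate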
CSC inhib: cancer stem cell viability inhibitors, primary screen, luminescence | cancer stem cell-like cells viability | inhibition, % at 7.5 µM | 300,000 tested, 1.1% active;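 active means mean at 75% or more and at least half the replicates too; inconclusive means mean and replicates disagree; tested in HMLE shEcad cells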;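 further: 0% = median of negative and 100% = median of positive control wells; the first replicate is given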
Rce1 inh: yeast Rce1p protease inhibitors, primary screen, biochemical, fluorescence, cell-free homogeneous. yeast membranes, quenched prenylated peptide cleavage fluorescence. 290,000 tested, 0.27% active. calls only. CAAX prenyl protease 2 (Saccharomyces cerevisiae (strain ATCC 204508 / S288c)), Q03530;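 active means fall in fluorescence gain of 50% or more versus controls, with final raw signal at or below 3038400; inconclusive means same 50% fall but final raw signal above 3038400; inactive means fall in fluorescence gain under 50%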;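 further: plate controls were neutral control wells for no effect and wells lacking membranes for full effect; tested at 10 µM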
PABP polyA inh: PABP poly(A) RNA binding inhibitors, primary screen, biochemical, fluorescence polarization, uHTS | 290,000 tested, 1% active | Polyadenylate-binding protein 1 (Homo sapiens), P11940 | inhibition, % at 35 µM;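 active means 50% or more with normal probe brightness, or confirmed in later tests; inconclusive means above 50% with abnormal brightness, or retests that disagree; inactive means below 50% or failed in later tests; about a fifth of its hits are not listed in these tables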;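 further: calls also rest on retests at 20 µM and on dose response follow-up; controls were probe without protein and protein plus probe with vehicle; some compounds called inactive have numbers as strong as hits; many hits fall short of the cut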
Target sequence (P11940 whole entry, looked up): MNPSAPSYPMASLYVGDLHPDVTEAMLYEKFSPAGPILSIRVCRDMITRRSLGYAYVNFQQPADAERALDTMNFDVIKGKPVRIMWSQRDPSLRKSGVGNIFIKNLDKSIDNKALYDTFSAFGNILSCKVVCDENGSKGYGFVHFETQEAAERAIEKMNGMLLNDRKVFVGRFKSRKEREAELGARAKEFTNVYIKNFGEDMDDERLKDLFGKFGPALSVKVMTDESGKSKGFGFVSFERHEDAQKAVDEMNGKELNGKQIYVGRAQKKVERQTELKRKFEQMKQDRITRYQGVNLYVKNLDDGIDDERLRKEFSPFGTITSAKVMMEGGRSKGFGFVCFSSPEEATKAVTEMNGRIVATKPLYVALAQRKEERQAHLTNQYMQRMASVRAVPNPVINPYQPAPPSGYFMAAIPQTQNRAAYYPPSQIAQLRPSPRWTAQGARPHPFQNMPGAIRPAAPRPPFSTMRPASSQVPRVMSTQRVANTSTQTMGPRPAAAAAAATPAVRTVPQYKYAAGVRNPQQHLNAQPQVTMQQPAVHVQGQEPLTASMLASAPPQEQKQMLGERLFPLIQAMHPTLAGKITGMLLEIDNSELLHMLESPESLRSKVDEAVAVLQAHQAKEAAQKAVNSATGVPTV
MT1-MMP act inh RFP: recorded beside MT1-MMP act inh, whose call it bears; RFP signal change, %; measured here: RFP expression control read;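 0 = vehicle wells; hits needed this value within 50% of zero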
* marks the source's active call; other numbers are inactive results; i = inactive; ? = inconclusive; / = no result given; & = joins results of further samples; [ ] = another dose, or the depositor's remark.

SMILES	MT1-MMP act inh	MT1-MMP act inh RFP	eIF4H FP inh	HIV Env fusion	UUG fidelity	CSC inhib	Rce1 inh	PABP polyA inh
O=C(O)c1ccnc(Cl)c1	2	7	-9	-20	-8	-3	i	-8
Cc1cc(C(=O)Oc2ccccc2C(=O)O)c(C)o1	-1	1	-1	/	-23	8	i	3
Fc1ccccc1CSc1ncn[nH]1	-3	1	-1	-57	-14	-4	i	-14
COc1ccc(-c2cc(=O)oc3cc(OCC(=O)NCC(O)c4ccccc4)ccc23)cc1 (configuration not stated)	2	-2	13	/	-13	-4	i	-10
O=C(CSc1nnc(-c2ccc(O)cc2)o1)Nc1cccc(O)c1	-3	-1	-1	-29	-6	17	i	7
Cc1ccc(N2C(=O)Nc3ccc(Br)cc3C2(O)C(=O)NCCN(C)C)cc1C (configuration not stated)	5	3	-32	-36	-10	8	i	1
C=CCN1c2ccccc2C(=O)CS1(=O)=O	4	8	/	4	-10	-1	/	/
CCC(=O)c1ccc(OCCSc2ncccn2)cc1	0	-3	1	-61	-17	16	i	6
CN(C(=O)CSc1nnc(-c2ccccc2)o1)c1c(N)n(Cc2ccccc2)c(=O)[nH]c1=O	-4	4	2	7	/	-10	i	6
c1ccc(-c2nnc(-c3ccccc3)o2)cc1	0	-1	-6	/	-14	11	i	-6
CN(CCCN1CCOCC1)C(=O)c1cc(COc2cccc(C(F)(F)F)c2)on1	2	4	-18	10	-13	10	i	6
CSC1=NCCN1C(=O)COc1ccccc1	-1	5	9	-346	-18	-2	i	9
O=C(N/N=C/c1ccccn1)c1ccc(NC(=O)c2ccc(F)cc2)cc1	4	1	1	6	-11	16	/	11
CCOc1ccc(/C=C/C(O)=C2/C(=O)NC3(C)CC2c2ccccc2O3)cc1OC (configuration not stated)	-5	-12	3	-34	-7	24	i	18
O=C(N/C(=C/c1cccnc1)C(=O)N1CCCCCC1)c1cccc(Br)c1	-3	-3	5	1	-8	2	i	9
COc1ccc(NC(=O)CNS(=O)(=O)c2ccccc2)cc1Cl	4	3	-4	/	-11	-12	i	-15
O=C1C=C(c2cccc(Cl)c2O)C[C@@H](c2ccc3c(c2)OCO3)C1	-16	-1	/	/	7	11	/	/
CC(C)N1C(=S)N(Cc2ccco2)C(=O)C1CC(=O)Nc1ccccc1 (configuration not stated)	-1	1	6	12	/	/	i	2
CCOC(=O)c1c(S(=O)(=O)NCC2CCN(CCc3cccs3)CC2)c(C)n(C)c1C	-3	4	10	4	-8	3	i	-10
CC(=O)Nc1ccc(S(=O)(=O)NC2CC2)cc1	1	3	-6	5	-5	-8	i	4
O=C(Nc1ccc([N+](=O)[O-])cc1)N1CCN(C(=O)C2CCCO2)CC1 (configuration not stated)	2	3	-7	3	-14	7	i	-7
Cc1ccc(C(O)(CCN2CCCCC2)c2ccccc2)cc1 (configuration not stated)	-1	4	-6	?	2	-7	i	-6
CC(C)(C)C(=O)Nc1sc2c(c1C(=O)Nc1ccccn1)CCCC2	-3	-2	-5	-3	-3	-7	i	4
CC1(C)CC2(CCO1)C(Nc1ccccc1)=NC(=S)N2CC(N)=O (configuration not stated)	-2	4	-9	3	/	-1	i	-3
O=C(OCc1cncs1)c1cccs1	-4	3	-1	-6	/	-12	i	-9
CCO[C@H]1OC(C(=O)N2CCN(Cc3ccc4c(c3)OCO4)CC2)=C[C@@H](c2csc3ccccc23)[C@@H]1CCCO	-2	-8	-7	10[16.7 µM]	-1&-8	21	i	-9
O=C(CSc1nc(=O)n(CCCN2CCOCC2)c2c1CCCC2)Nc1ccc(F)cc1F	0	4	/	0	-4	-2	i	/
CCCC(=O)NC(=S)Nc1ccc(NC(=O)c2cccs2)cc1	3	-11	-6	-70	-19	-6	i	-1
CCN(C[C@H]1N[C@@](C)(C(=O)OC)[C@H]2C(=O)N(Cc3ccccc3)C(=O)[C@@H]12)C(=O)c1ccccc1	3	6	/	?	-4	/	/	/
COc1ccc(CN2C(=O)C(CC(=O)NCc3ccco3)CC(C(=O)N(C(C)C)C(C)C)=C2C)cc1 (configuration not stated)	4	5	/	-3	-21	/	/	/
N#Cc1ccc(NC(=O)CCc2nc3ccccc3s2)cc1	0	3	9	-22	-16	8	i	-4
CC(=O)Nc1ccc(Sc2ncnc3scc(-c4ccccc4)c23)cc1	-7	-6	-6	-1	-4	2	i	0
COc1cccc(C2C(C#N)=C(N)SC(c3ccccc3)C2[N+](=O)[O-])c1 (configuration not stated)	1	-8	0	10	-13	-2	i	-3
Cc1nc(/N=C\c2ccc(N(C)C)cc2)sc1C	1	0	/	-21	12	-16	i	/
COC(=O)CN1C(=O)[C@H]2[C@@H](C3CC3)N3C(=O)CN(Cc4ccc(-c5ccccc5)cc4)C(=O)[C@@]3(Cc3ccccc3)[C@H]2C1=O	-8	-13	4	0	-23	-32	i	0
COc1ccc(C2CC(=O)C=C(NCC3CCCO3)C2)cc1 (configuration not stated)	-2	0	5	-403	-14	-8	i	-3
CN(CC(=O)Nc1c(Cl)cccc1Cl)C(=O)c1ccccc1-c1nc2ccccc2s1	-5	-5	/	7	0	-10	i	/
C1=CC2CC1CC2CNCc1ccco1 (configuration not stated)	-2	4	1	-81	-15	-12	/	3
CCOC(=O)C1CCCN(C(=O)c2ccccc2NC(C)=O)C1 (configuration not stated)	4	12	-8	1	-5	-9	i	-2
Cn1c(N)c(N=Nc2ccc(S(N)(=O)=O)cc2)c(=O)n(C)c1=O	-6	3	-6	7	-9	-5	i	-2
CSCC[C@H](NC(=O)N1CCn2c1nc1ccccc12)C(=O)NCc1ccc(F)cc1	9	2	3	10	-5	-4	i	5
O=C(O)CSCc1ccc(C(=O)O)o1	0	6	0	-5	-11	1	i	6
O=C(O)c1ccc(N/N=C/c2cc3cc4c(cc3nc2Cl)OCCO4)cc1	/	/	-9	-59	7	5	i	4
CCN1CCc2c(OCC(=O)N3N=C(c4cccs4)CC3c3ccc(F)cc3)cccc2C1=O (configuration not stated)	0	-3	-4	-35	/	17	i	-18
Cc1ccc(C)c(NC(=S)c2ccccn2)c1	-2	-5	-11	-51	-8	/	i	4
Cc1ccc(C(=O)NCCc2cccs2)cc1	4	3	-1	19	-83	-2	i	-10
COc1ccc(OC)c(/C(C)=N\NC(=O)c2cc3cc(Cl)ccc3n2C)c1	-3	-8	-2	-17	-4	61	i	-10
O=C(CCc1ccccc1)NNC(=O)c1ccncc1	-2	6	/	/	-3	-6	/	/
Cc1cc(NC(=O)c2c(F)cccc2Cl)no1	8	9	-2	-13	/	-11	/	0
O=C(CC12CC3CC(CC(C3)C1)C2)NC(=S)NCc1ccco1	-8	-9	-3	17	/	45	i	-3

A different layout for 4 compounds above:
> COc1ccc(-c2cc(=O)oc3cc(OCC(=O)NCC(O)c4ccccc4)ccc23)cc1 (configuration not stated)
  MT1-MMP act inh: 2; MT1-MMP act inh RFP: -2; eIF4H FP inh: 13; HIV Env fusion: /; UUG fidelity: -13; CSC inhib: -4; Rce1 inh: i; PABP polyA inh: -10

> O=C(CSc1nnc(-c2ccc(O)cc2)o1)Nc1cccc(O)c1
  MT1-MMP act inh: -3; MT1-MMP act inh RFP: -1; eIF4H FP inh: -1; HIV Env fusion: -29; UUG fidelity: -6; CSC inhib: 17; Rce1 inh: i; PABP polyA inh: 7

> Cc1ccc(N2C(=O)Nc3ccc(Br)cc3C2(O)C(=O)NCCN(C)C)cc1C (configuration not stated)
  MT1-MMP act inh: 5; MT1-MMP act inh RFP: 3; eIF4H FP inh: -32; HIV Env fusion: -36; UUG fidelity: -10; CSC inhib: 8; Rce1 inh: i; PABP polyA inh: 1

> C=CCN1c2ccccc2C(=O)CS1(=O)=O
  MT1-MMP act inh: 4; MT1-MMP act inh RFP: 8; eIF4H FP inh: /; HIV Env fusion: 4; UUG fidelity: -10; CSC inhib: -1; Rce1 inh: /; PABP polyA inh: /

The list continues.
SMILES	MT1-MMP act inh	MT1-MMP act inh RFP	eIF4H FP inh	HIV Env fusion	UUG fidelity	CSC inhib	Rce1 inh	PABP polyA inh
CNC[C@H]1Oc2cc(Br)ccc2S(=O)(=O)N([C@@H](C)CO)C[C@H]1C	2	2	/	5[16.7 µM]	-4&4&-3	/	/	/
O=[N+]([O-])c1ccc(S(=O)(=O)Nc2ccc(-c3ccccc3)cc2)cc1	2	2	/	-60	-7	/	/	/
Cn1ncc2c(NNC(=O)Cc3cccc4ccccc34)ncnc21	2	2	1	/	11	-11	i	-6
CCCCCCc1cc2cc(S(=O)(=O)c3ccc(Cl)cc3)c(=O)oc2cc1O	-5	-33	9	-6	-16	87*	i	-9
CC(OC(=O)c1cc(Br)ccc1O)C(=O)NCc1ccc2c(c1)OCO2 (configuration not stated)	3	3	/	/	-18	-7	i	/
CCOC(=O)C1(C)CCCN(C(=O)c2ccc(OC)cc2)C1 (configuration not stated)	-3	3	/	-8	-6	/	/	/
CCc1nnc(NC(=O)C2CCCN(S(=O)(=O)c3ccccc3)C2)s1 (configuration not stated)	2	-1	4	/	-7	/	i	10
CN(Cc1ccccc1)C(=O)CCC1CCN(S(=O)(=O)N(C)C)CC1	4	-3	-6	-13	-7	-8	i	-11
COc1ccccc1-c1nc(C#N)c(NCc2ccc(F)cc2)o1	2	-2	3	/	-15	22	?	2
CCc1cccc(C)c1NC(=O)CO/N=C(\N)CC(=O)NC1CCCCC1	-13	-1	39	8	/	-10	i	-3
CCC(C)(c1nnnn1-c1c(C)cccc1C)N(N=O)c1cccc(C(F)(F)F)c1 (configuration not stated)	1	-4	-3	8	-6	33	i	-1

Record cards, as listed above:
Shown for Cc1ccc(C(O)(CCN2CCCCC2)c2ccccc2)cc1 (configuration not stated) : MT1-MMP act inh: -1; MT1-MMP act inh RFP: 4; eIF4H FP inh: -6; HIV Env fusion: ?; UUG fidelity: 2; CSC inhib: -7; Rce1 inh: i; PABP polyA inh: -6
Shown for Cc1cc(NC(=O)c2c(F)cccc2Cl)no1 : MT1-MMP act inh: 8; MT1-MMP act inh RFP: 9; eIF4H FP inh: -2; HIV Env fusion: -13; UUG fidelity: /; CSC inhib: -11; Rce1 inh: /; PABP polyA inh: 0

From PubChem
